# PINK1 modulator: changes PINK1 expression; PINK1 immunofluorescence, high-content cytometry, 24 h; Potency, µM (doses to about 76.6 µM), for the others: at the top dose activation (PINK1 increase), most hits filed as activators; 410,000 tested, 0.2% active; active = well fitted activation curve with a large enough effect; inconclusive = small, poorly fitted or top-dose-only effect; inactive = flat fitted curve, though single readings scatter; cell line not stated here;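 note: potency is the fitted concentration of half-maximal effect; % of control where 0% means no effect; nearly all actives have a fitted effect of over 65% in size; a mitochondrial uncoupler was the plate control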
#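 Decision-based qHTS: stable cells, 24 h exposure to five compound concentrations, CCCP as control. Fixed cells stained for PINK1 plus nuclear, mitochondrial and cell markers, cytometer read.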
# TRPML1 agonist: human mucolipin-1 channel agonism; 410,000 tested, 0.12% active; activation, % (concentration not given with the values); Q9GZU1; TRPML1-expressing cells, Ca2+ dye fluorescence, FDSS; host cell line not named in the record; reference of the full effect not given here; in the data active = activation above about 50%; inconclusive = about 30% to 50%; inactive = below about 30%; note: 0% is about no effect; the text of the record puts the active cut at 80%
# Target sequence (Q9GZU1 whole entry, looked up): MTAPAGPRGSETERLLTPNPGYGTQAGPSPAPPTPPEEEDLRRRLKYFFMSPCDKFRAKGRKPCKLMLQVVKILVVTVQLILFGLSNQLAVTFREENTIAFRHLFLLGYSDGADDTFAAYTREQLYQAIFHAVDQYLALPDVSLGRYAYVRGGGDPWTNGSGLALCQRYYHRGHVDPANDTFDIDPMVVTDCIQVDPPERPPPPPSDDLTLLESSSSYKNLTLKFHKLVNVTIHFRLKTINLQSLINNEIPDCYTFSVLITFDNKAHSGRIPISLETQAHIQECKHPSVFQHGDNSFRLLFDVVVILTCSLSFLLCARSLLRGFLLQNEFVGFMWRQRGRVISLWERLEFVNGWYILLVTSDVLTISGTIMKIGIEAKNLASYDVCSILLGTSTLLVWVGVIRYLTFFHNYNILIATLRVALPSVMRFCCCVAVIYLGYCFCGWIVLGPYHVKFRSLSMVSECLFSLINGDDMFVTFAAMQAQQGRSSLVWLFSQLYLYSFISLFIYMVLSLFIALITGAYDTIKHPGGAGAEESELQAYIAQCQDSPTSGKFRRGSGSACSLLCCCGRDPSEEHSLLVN
#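 Agonist activity was taken from a 110 s kinetic Ca2+ dye read on the FDSS after pinning compounds onto TRPML1-DL cells. The cells were seeded at 1,500/well with Tet inducer, incubated about 16 h, then dye-loaded at room temperature.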
# TRPML1 inh: human mucolipin-1 channel inhibition; Q9GZU1; AID 624415; TRPML1-inducible cells, Ca2+ dye fluorescence, FDSS; stronger effect = lower value; inhibition of EC80 agonist-evoked calcium signal; activity change, negative = inhibition, % (no concentration beside the values); 390,000 tested, 0.02% active; in the data active means activity change below about -50%; inconclusive means about -30% to -50%; inactive means above about -30%;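 note: stimulus is agonist 54-4 at its EC80 concentration; % is set by controls: 0 for no effect and ±100 for the full control effect; compound concentration not given in the record; the text of the record puts the active cut at -80%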
#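 TRPML1-DL cells, Tet-induced overnight (~16 h, 37 °C) at 1,500 cells/well, were loaded with Ca8 no-wash dye plus quencher for 45-90 min at room temperature. Compounds were pinned during FDSS kinetic reading; agonist 54-4 at EC80 (4 uM final) then added.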
# D2 ag: human D2 receptor agonism in beta-arrestin assay | AID 624465 | 360,000 tested, 0.084% active | DiscoveRx PathHunter D2 beta-arrestin, luminescence, 90 min; 100% = 57 uM dopamine signal | activation, % (test concentration not listed); in the data active = activation above about 40%; inconclusive = about 15% to 40%; inactive = below about 15%; note: compound concentration not given in the record; the text of the record calls up to 30% inactive
# Target sequence (P14416 whole entry, looked up): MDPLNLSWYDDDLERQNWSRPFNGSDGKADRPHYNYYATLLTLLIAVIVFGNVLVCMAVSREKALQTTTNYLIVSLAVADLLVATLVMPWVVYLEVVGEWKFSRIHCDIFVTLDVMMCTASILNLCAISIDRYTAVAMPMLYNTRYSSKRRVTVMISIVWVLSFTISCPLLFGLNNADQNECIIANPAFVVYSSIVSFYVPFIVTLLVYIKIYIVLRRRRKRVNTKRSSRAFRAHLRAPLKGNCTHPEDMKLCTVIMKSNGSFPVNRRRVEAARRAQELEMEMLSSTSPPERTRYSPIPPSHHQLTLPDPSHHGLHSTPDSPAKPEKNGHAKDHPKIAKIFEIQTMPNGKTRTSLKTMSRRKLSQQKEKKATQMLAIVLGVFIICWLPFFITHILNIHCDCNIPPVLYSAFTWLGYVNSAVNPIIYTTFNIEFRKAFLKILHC
#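 Agonist mode: compounds alone added to overnight-plated D2 PathHunter cells for 90 min at 37 C, with 57 uM final dopamine (EC100) defining full response. Beta-arrestin recruitment detected by chemiluminescent reagent, read after 1 h at ambient temperature.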
# CtBP-E1A inh: inhibitors of CtBP/E1A interaction; AlphaScreen GST-E1A/His-CtBP binding, 1536-well; stronger effect = lower value; control for the full effect not named in the record; activity change, % (no concentration beside the values); 340,000 tested, 0.49% active; AID 651724; in the data active means activity change below about -65%; inconclusive means about -30% to -65%; inactive means above about -30%; note: % is set by controls: 0 for no effect and ±100 for the full control effect; compound concentration not given in the record
#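 GST-E1A and His-tagged CtBP (125 nM each as 5X stock) were preincubated with pin-transferred compound for 2 h at 37 °C in the dark, then glutathione donor and nickel acceptor beads were added for 1 h before AlphaScreen reading.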
# Six1-Eya2 blk: blocks human Six1 binding to Eya2. Q15475+O00167. AlphaScreen GST-Six1/His-Eya2 binding, biochemical; stronger effect = lower value; control for the full effect not named in the record. activity change, % (test concentration not listed). 360,000 tested, 0.56% active. AID 651725; in the data active = activity change below about -65%; inconclusive = about -30% to -65%; inactive = above about -30%; note: % is set by controls: 0 for no effect and ±100 for the full control effect; compound concentration not given in the record
#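 Homogeneous AlphaScreen proximity assay pairing GST-Six1 with His-tagged Eya2 (added as 5X mix: 250 nM and 500 nM) in 50 mM Tris pH 8.0, 300 mM NaCl, 1 mM TCEP. Glutathione donor and nickel acceptor beads; 1 h, 37 °C, dark.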
# Starred values were filed as active, the others as inactive; u = inconclusive; x = not tested or not shown.
canonical_smiles,PINK1 modulator,TRPML1 agonist,TRPML1 inh,D2 ag,CtBP-E1A inh,Six1-Eya2 blk
CCOc1c(Cl)cc(C(=O)Nc2ccccc2-c2ccccc2)cc1Cl,7.1%,4.0,-1,-1.0,31,20
CN(c1ccc(C(=O)NCc2cccs2)cc1)S(=O)(=O)c1ccccc1,2.5%,0.8,27,0.9,10,0
O=C1CSCN1c1ccc(Cl)c(Cl)c1,-0.5%,-0.9,18,4.8,x,9
Cc1csc2nc(COc3ccc(NC(=O)COc4ccc(F)cc4)cc3)cc(=O)n12,3.4%,0.9,-7,x,x,x
CC(=O)c1c(C)[nH]c(C(=O)Nc2ccccc2N2CCOCC2)c1C,4.8%,-0.6,5,-0.8,-19,7
CCOC(=O)C1=C(N)OC2=C(C(=O)CC(C)(C)C2)C1c1ccoc1 (stereo unspecified),-0.3%,-1.2,4,-4.4,5,0
COc1ccc(NC(=O)c2ccc3c(c2)n(C)c(=O)n3C)cc1,6.1%,-0.4,-4,1.5,u,u
COc1ccc(-c2sc3cc4c(cc3c2-c2ccc(OCCN3CCOCC3)cc2)OCO4)cc1,-0.9%,0.0,33,-1.5,-20,-5
C[C@H]1CN([C@@H](C)CO)C(=O)CCCn2nncc2CO[C@@H]1CN(C)Cc1ccc(C(=O)O)cc1,-0.5%,-0.4,17,-10,3,0
Cn1cc(CN2CCC(Oc3ccc(C(=O)N4CCCCC4)cc3)CC2)cn1,0.0%,1.3,-11,-10,0,0
COc1ccc(/C=C/C(=O)Nc2ccncc2)cc1OC,-0.9%,-0.4,-3,2.8,1,8
O=C(Nc1ccc2c(c1)OCO2)c1cc(C2CCCN(C(=O)C3CCCCC3)C2)on1 (stereo unspecified),1.0%,-0.6,33,2.8,-2,-6
O=C(O)CCC(=O)NCc1ccc(C(=O)O)cc1,-3.0%,5.4,-7,3.3,5,9
O=S(=O)(c1cccc(-c2csc(-c3cccnc3)n2)c1)N1CCOCC1,0.4%,1.4,-15,-0.3,-23,-17
COc1ccc(CCNC(=O)c2ccc(Cn3c(=O)c4ccccc4n(Cc4ccc(C)cc4)c3=O)cc2)cc1OC,7.6%,-0.2,2,x,x,x

# Profiles as entered above. Values in the order: PINK1 modulator | TRPML1 agonist | TRPML1 inh | D2 ag | CtBP-E1A inh | Six1-Eya2 blk
# Record of CC(=O)c1c(C)[nH]c(C(=O)Nc2ccccc2N2CCOCC2)c1C = 4.8% | -0.6 | 5 | -0.8 | -19 | 7
# Record of O=S(=O)(c1cccc(-c2csc(-c3cccnc3)n2)c1)N1CCOCC1 = 0.4% | 1.4 | -15 | -0.3 | -23 | -17

# Additional entries:
canonical_smiles,PINK1 modulator,TRPML1 agonist,TRPML1 inh,D2 ag,CtBP-E1A inh,Six1-Eya2 blk
N#CC1=C(N)Oc2n[nH]c(-c3cccs3)c2C1c1ccco1 (stereo unspecified),0.4%,4.4,12,-0.9,-5,-6
O=C(NC1CCCCC1)Oc1cc2oc(=O)sc2cc1Br,-0.3%,-0.7,17,-0.6,-2,-14
Cc1ccc(NC(=O)c2cnn(-c3ccccc3)c2C)cc1,0.5%,x,x,1.2,x,8
CN(C(=O)COC(=O)c1ccc2c(c1)OCO2)C1CCS(=O)(=O)C1 (stereo unspecified),2.0%,-0.5,-13,-3.7,7,11
Cc1cc(C)nc(N/N=C/c2ccccc2OCc2ccc(Br)cc2)n1,-0.7%,-1.5,-13,-8.5,4,0
CN=c1scc(-c2ccc(OC)cc2)n1/N=C(\C)c1cccnc1,2.3%,1.0,1,5.9,u,u
COCCCNC(=O)c1cc(S(=O)(=O)NCCCN2CCCC2=O)ccc1Cl,1.1%,1.0,3,3.2,-7,10
CC(NC(=O)c1cccs1)c1n[nH]c(=S)n1C (stereo unspecified),3.4%,0.9,4,0.0,3,2
C[C@@H]1NS(=O)(=O)[C@H]2C[C@@H]3C=C[C@]2(O3)[C@H]1OC(=O)c1ccc(C(C)(C)C)cc1,-0.6%,-1.0,-1,2.5,-6,0
CC(=O)N1CCc2cc(S(=O)(=O)N3CCCCC3C)ccc21 (stereo unspecified),-0.9%,-0.6,14,3.0,x,1
CC1(C)CC(=O)C2=C(C1)N(Cc1cccnc1)C(=O)C2(NC(=O)c1ccc(F)cc1)C(F)(F)F (stereo unspecified),-0.5%,0.1,34,-2.2,-7,1
O=C(N1CCc2cc(S(=O)(=O)NC[C@H]3O[C@@H](n4ccc(=O)[nH]c4=O)[C@H](O)[C@@H]3O)ccc2C1)C(F)(F)F,-0.3%,-0.1,-13,-0.1,6,5
Cc1ccc(S(=O)(=O)N(C)C[C@@H]2Oc3c(NS(C)(=O)=O)cccc3C(=O)N([C@H](C)CO)C[C@@H]2C)cc1,-0.3%,-0.4,2,0.6,6,3
CC(OC(=O)c1cccc([N+](=O)[O-])c1)C(=O)NCc1ccc2c(c1)OCO2 (stereo unspecified),-0.9%,0.6,8,-4.5,-18,-8
Cc1ccc(-c2csc(NC(=S)NC(=O)c3ccco3)n2)cc1,6.3%,-0.6,-2,-4.9,-10,-10
CC(Cc1cccs1)NC(=O)NC1CCCCC1 (stereo unspecified),x,0.2,13,-2.3,43,24
O=C(Nc1cc(C(F)(F)F)ccc1N1CCCCC1)c1cccc([N+](=O)[O-])c1,3.7%,0.6,2,1.5,36,-2
Fc1ccc(Nc2cncc(-c3ccsc3)c2)cc1Cl,5.6%,0.3,x,u,u,-5
CN(C)CCCNC1=CC(=O)CC(c2ccccc2)C1 (stereo unspecified),0.3%,-0.3,11,-2.7,-2,-1
O=C(COc1ccc(S(=O)(=O)N2CCOCC2)cc1Cl)NCC1CCCO1 (stereo unspecified),0.3%,-1.0,2,-6.5,0,-19
O=C(Nc1nccs1)c1cc(S(=O)(=O)N2CCOCC2)ccc1Cl,-2.8%,1.5,-3,-0.6,5,-1
O=C(NCC(c1cccnc1)N1CCc2ccccc21)c1ccccc1Br (stereo unspecified),-1.0%,0.1,14,x,x,x
CCOc1ccc(-n2c(SCC(=O)c3c(N)n(C)c(=O)n(C)c3=O)nnc2-c2cccnc2)cc1,0.8%,0.7,2,0.8,-5,-10
O=S(=O)(Nc1ccc(-n2cnnn2)cc1)c1ccc(Cl)cc1,1.4%,1.8,9,0.2,10,3
CCN(CC(=O)Nc1c(F)cccc1F)C(=O)C1CCN(S(=O)(=O)c2ccc(C)c(C)c2)CC1,-0.6%,1.9,0,-0.9,11,-7
COC(=O)c1ccccc1NC(=O)Cc1nc(-c2ccccc2)sc1-c1ccc(C)cc1,0.7%,0.3,-11,-1.7,-2,-7
Cc1ccc(N2CC(NC(=O)c3ccc(S(=O)(=O)N4CCCCC4)cc3)CC2=O)cc1 (stereo unspecified),0.6%,-1.0,-6,x,x,x
COc1cc(OC)c(NC(=O)c2csc3c2CCC(C)C3)cc1Cl (stereo unspecified),5.6%,0.8,49,x,x,x
CCOC(=O)CN1C(=O)S/C(=C/c2ccc3c(c2)n(C)c(=O)n3C)C1=O,1.9%,1.0,-1,3.0,6,5
Cc1cc(C)c(C#N)c(SCc2c(F)cccc2[N+](=O)[O-])n1,2.8%,1.5,9,-2.5,2,-5
COc1cccc(N/C(SC)=C(/C#N)C(N)=O)c1,u,-0.4,9,-3.9,1,-2
COc1ccccc1NS(=O)(=O)c1cc(NC(=O)c2cccnc2)ccc1N1CCCCC1,0.1%,1.9,23,3.8,-7,-6
CC(=O)Nc1ccc(CN2CCCC(CCC(=O)NCc3ccccc3F)C2)cc1 (stereo unspecified),0.8%,0.2,-2,-7.3,-2,2
Cn1cc(C(=O)N/N=C/c2cccc(O)c2)ccc1=O,0.5%,1.4,8,5.5,-9,-7
Cc1cc(C(=O)O)ccc1NCc1ccncc1,0.7%,0.7,3,-0.9,9,-15
COc1ccc(-c2ccnc(-c3ccncc3)n2)cc1,7.2%,-0.4,-7,0.0,2,4
CC1S/C(=C(\C#N)C(=O)NCc2ccco2)N(Cc2ccco2)C1=O (stereo unspecified),-0.4%,-0.1,-7,-0.6,-7,-4
CN(C)C(=O)CCc1ccc2c3c([nH]c2c1)[C@]1(C)[C@@H](C(=O)N2CCCCC2)C[C@H](CC(=O)NCCc2ccccn2)C(=O)N1CC3,1.0%,-0.3,22,-0.7,0,-1
COc1ccc(N(C(=O)Cn2nnc(-c3ccc(Cl)cc3)n2)C(C(=O)NCC2CCCO2)c2ccc(C)cc2)cc1 (stereo unspecified),x,0.5,-4,-1.4,7,-3
Cc1ccc(C(=O)OCC(=O)Nc2ccccc2Sc2ccccc2)cc1C,6.6%,1.3,-15,-5.0,15,13
O=C(N/N=C\C=C\c1ccc2c(c1)OCO2)c1ccc(F)cc1,-2.8%,1.2,13,4.1,2,-4
Cc1ccc(NC(=O)c2csc3c2CCCC3)cc1,0.4%,0.3,-11,-1.3,0,-10
CN(Cc1ccccc1)S(=O)(=O)c1cccc(C(=O)O)c1,-0.3%,-0.8,3,0.2,6,6
CCOc1ccc(CCNC(=O)CCc2cn(Cc3ccccc3F)c3ccccc23)cc1OCC,0.4%,0.4,-10,x,x,x
COc1cc(NC(=O)C2CCN(c3nc4ccccc4nc3C(F)(F)F)CC2)cc(OC)c1,2.5%,-0.7,-2,x,x,x
COc1ccc(NC(=O)/C(C#N)=C/c2ccc(OCc3cc(=O)n4nc(C)sc4n3)cc2)cc1,4.9%,-0.4,-16,x,x,x
CC1=C(C(N)=O)C(c2cccnc2)n2nc(-c3cccc(C)c3)nc2N1 (stereo unspecified),1.0%,-0.1,-5,0.4,-3,0
COC(=O)c1ccc(NC(=O)CSc2nccn2Cc2ccc(Cl)cc2)cc1,12%,2.4,45,x,x,x
COc1cc(NC(=O)CSc2nc(C)c(C(=O)Nc3ccccc3)c(-c3ccc(OC)c(OC)c3)c2C#N)c(OC)cc1Cl,0.3%,0.9,31,x,x,x
COc1ccc(CCNC(=O)C(=O)NCC2CCCN2S(=O)(=O)c2cccs2)cc1 (stereo unspecified),0.1%,0.0,-4,2.5,-24,5
CCOc1cc(/C=C/C(=O)OCC(=O)NCC2CCCO2)cc(Cl)c1OC (stereo unspecified),0.3%,-1.3,12,-4.1,u,-1
COc1cc(C)c(S(=O)(=O)Nc2ccccc2F)cc1C,0.2%,1.4,-1,-2.1,10,5
CC(=O)c1ccc(C(=O)NC2CCCN(Cc3ccc(Cl)cc3)C2)s1 (stereo unspecified),u,1.7,4,-7.5,9,-5
O=C1c2ccccc2C(c2nnnn2Cc2ccccc2)N1CCCn1ccnc1 (stereo unspecified),-0.5%,-0.2,x,x,5,-1
Cc1nnc2sc(SCC(=O)Nc3cccc(Cl)c3)nn2c1=O,3.9%,-0.6,-9,-1.4,-93*,u

# Source: PubChem BioAssay (National Center for Advancing Translational Sciences (NCATS))
